Compound activity as filed in PubChem BioAssay.
Luc counter – blocks Kinase-Glo luciferase, a counter-screen artifact; Potency, µM (titrated, usually from 38.3 µM), without a hit: top-dose activity change, negative = inhibition, usual class: inhibitors; Kinase-Glo luciferase, ATP luminescence, 8 min; 200,000 tested, 0.28% active; AID 1379; note: % is set by controls: 0 for no effect and ±100 for the full control effect; nearly all actives have a fitted effect of over 60% in size
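Kinase-Glo luciferase light output from ATP and luciferin was measured with 10 uM ATP, within the enzyme's linear range. Buffer: 50 mM imidazole pH 7.2, 50 mM KCl, 7 mM MgCl2, 0.01% Tween 20, 0.05% BSA; luminescence read after 8 min at ambient temperature.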
HTT aggregate – mutant huntingtin aggregation inhibition. PC12 HttQ103-GFP aggregates, Acumen cytometry, 40 h. 220,000 tested, 1.1% active. Potency, µM (highest dose often 46.1 µM), without a hit: at the top dose activity change, negative = inhibition, hits mostly inhibitors; note: % is set by controls: 0 for no effect and ±100 for the full control effect; nearly all actives have a fitted effect of over 60% in size
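Using laser scanning cytometry, GFP-positive aggregates were counted after lysis of PC12 cells induced with 100 nM tebufenozide to express HTT exon 1 Q103–GFP. Compounds were tested in titration.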
Lamin A splicing – changes lamin A minigene splicing in HeLa cells. 200,000 tested, 0.01% active. HeLa LMNA splicing GFP/RFP minigene ratio, 48 h. Potency, µM (titrated, usually from 46.1 µM), inactives show at the top dose ratio change, negative = inhibition, hits mostly inhibitors; active = well fitted inhibition curve with a large enough effect in the signal ratio, with a control signal flat, not every such curve was filed as active; inconclusive = small, poorly fitted or top-dose-only effect, or effect the other way, or a change in a side signal; the % refers to the signal ratio; note: % is set by controls: 0 for no effect and ±100 for the full control effect
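S3 HeLa stable clones carrying a lamin A-EGFP splicing minigene plus DsRed2 were seeded at 600 cells/well in Opti-MEM with 2% FBS, pin-dosed and incubated 48 h at 37°C. Acumen cytometry (488 nm) gave the GFP/RFP total-intensity ratio.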
HTT cytoprotect – protects HTT-Q103 PC12 cells, measured by ATP; PC12 HTT-Q103 induced, cytoprotection, ATP luminescence, 40 h; 230,000 tested, 0.14% active; Potency, µM (top dose mostly 56.4 µM), without a hit: cytoprotection (ATP increase), hits mostly activators;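 note: % of control where 0% means no effect; nearly all actives have a fitted effect of over 45% in size; toxic huntingtin expression switched on by the ecdysone agonist tebufenozide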
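Readout: ATPlite luminescence (ATP level). Model: stable PC12, inducible Htt exon1 Q103-GFP. Inducer: tebufenozide, 100 nM final. Compounds: dose series. No G418 in medium.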
* marks the source's active call; other numbers are inactive results; ? = inconclusive; · = no result given; & = joins results of further samples; [ ] = dose if it differs, or a comment. Unless noted, calls come from the whole dose curve; as a rule, active = well fitted curve in the direction sought with a large enough effect; inconclusive = small, poorly fitted or top-dose-only effect, or another doubt; inactive = no such curve, though single readings can be large; an effect the other way counts as inactive or inconclusive. Potency is the fitted concentration of half-maximal effect. These rows are one share of the data (hit frequency here may not be typical).

Molecule | Luc counter | HTT aggregate | Lamin A splicing | HTT cytoprotect
CC(C)(O)C1C2OC(=O)C1C1(O)CC3OC34C(=O)OC2C14C (configuration not stated) | · | -3% | · | -3%
O=C(Cl)/C=C/C(=O)Cl | · | · | · | 4%
CCOC(=O)C1CCCN(c2ccc([N+](=O)[O-])c3nonc23)C1 (configuration not stated) | -2% | ? | · | -31%[inhibitor]
Clc1ccccc1Cl | · | 25% | ? | -13%
C[N+]1(C)C2CC(OC(=O)C(CO)c3ccccc3)CC1C1OC12 (configuration not stated) | -3%&-3%&-3% | · | ? | 2%
CCOC(=O)c1ccccc1N | · | · | · | 24%
CNC(=O)Oc1ccc2c(c1)[C@]1(C)CCN(C)[C@@H]1N2C | 2%&-6% | 10%&3% | ? | -43%[inhibitor]
CC1CN2c3ccc([N+](=O)[O-])cc3CC3(C(=O)N(C)C(=O)N(C)C3=O)C2C(C)O1 (configuration not stated) | · | 5%[9.22 µM] | · | 3%[10 µM]
C#CCN(C)[C@H](C)Cc1ccccc1 | 1% | · | · | ?
C/C=C/CC#N | · | · | · | 3%
CNC(C)[C@@H](O)c1ccccc1 (some centres not stated) | 0% | -5% | · | ?
CNCC[C@H](Oc1ccc(C(F)(F)F)cc1)c1ccccc1 | -3% | · | ? | ?
C=CCc1ccc(OC)cc1 | -6% | · | · | -5%
CC(=O)[C@H]1CC[C@H]2[C@@H]3CC[C@H]4C[C@H](O)CC[C@]4(C)[C@H]3C(=O)C[C@]12C | 3%&-3% | -4%&3% | 6%&-14% | 17%
Nc1ccc(-c2ccccc2)cc1 | · | · | · | 16%
N#CCCCl | · | · | · | ?
C[N+]1(C)[C@@H]2CC(OC(=O)[C@@H](CO)c3ccccc3)C[C@@H]1[C@H]1O[C@H]12 (some centres not stated) | -1%[7.66 µM] | 1% | -6% | ?

Some of the entries so far, with two lines to a compound:
Values run as follows: Luc counter	HTT aggregate	Lamin A splicing	HTT cytoprotect
C[N+]1(C)C2CC(OC(=O)C(CO)c3ccccc3)CC1C1OC12 (configuration not stated)
→ -3%&-3%&-3%	·	?	2%
CCOC(=O)c1ccccc1N
→ ·	·	·	24%
CNC(=O)Oc1ccc2c(c1)[C@]1(C)CCN(C)[C@@H]1N2C
→ 2%&-6%	10%&3%	?	-43%[inhibitor]
CC1CN2c3ccc([N+](=O)[O-])cc3CC3(C(=O)N(C)C(=O)N(C)C3=O)C2C(C)O1 (configuration not stated)
→ ·	5%[9.22 µM]	·	3%[10 µM]
C#CCN(C)[C@H](C)Cc1ccccc1
→ 1%	·	·	?
C/C=C/CC#N
→ ·	·	·	3%
CNC(C)[C@@H](O)c1ccccc1 (some centres not stated)
→ 0%	-5%	·	?
CNCC[C@H](Oc1ccc(C(F)(F)F)cc1)c1ccccc1
→ -3%	·	?	?
C=CCc1ccc(OC)cc1
→ -6%	·	·	-5%
CC(=O)[C@H]1CC[C@H]2[C@@H]3CC[C@H]4C[C@H](O)CC[C@]4(C)[C@H]3C(=O)C[C@]12C
→ 3%&-3%	-4%&3%	6%&-14%	17%
Nc1ccc(-c2ccccc2)cc1
→ ·	·	·	16%
N#CCCCl
→ ·	·	·	?
C[N+]1(C)[C@@H]2CC(OC(=O)[C@@H](CO)c3ccccc3)C[C@@H]1[C@H]1O[C@H]12 (some centres not stated)
→ -1%[7.66 µM]	1%	-6%	?
